Compound activity deposited in PubChem BioAssay by Fisher Drug Discovery Resource Center.
NPYLR7 agonist: activates Aedes aegypti NPYLR7 receptor; HEK293T NPYLR7/Galpha15, GCaMP6s calcium fluorescence; activation, % at 10 µM; hit rate 0.15% among 270,000; in the data active = activation above about 40%;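 note: 0% = vehicle and 100% = reference agonist at the receptor; some compounds past the cut are filed as inactive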
NPYLR7 agonist max-min: also measured in NPYLR7 agonist; calls as there; activation, %; measured here: Max-Min RFU normalised activation; some inactives read as strong as hits;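 span of the calcium signal over five minutes; 0% = vehicle and 100% = native peptide agonist; compound fluorescence can raise it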
Active calls of the source: *. The list is partial, so the mix of outcomes need not match the whole.

[1] O=C(NCc1cccc(C(F)(F)F)c1)c1ccc(CSc2nnc(-c3ccccc3Cl)n2Cc2ccccc2)cc1
[2] CC1(C(=O)NCc2cccc(C(F)(F)F)c2)CCN1Cc1ccc(-c2ccccn2)cc1 (stereo not given)
[3] Cn1cnnc1Sc1ccc(NC(=O)CCc2cc(F)ccc2F)cc1
[4] COc1ccc(CCN(C)c2cc(Oc3ccccc3OC)ncn2)cc1OC
[5] Cc1cccc(NC(=O)CNC(=O)CN(Cc2ccccc2)C(=O)c2ccc(C)c([N+](=O)[O-])c2)c1
[6] Cc1nc(SCc2cccc(C(=O)O)c2)nc(N2CCN(C/C=C/c3ccccc3)CC2)c1C
[7] CC(=O)OC(C(=O)N1CCN(Cc2cc(=O)c(OCc3cc(C)cc(C)c3)co2)CC1)c1ccccc1 (stereo not given)
[8] O=C(c1cncn1-c1ccc(F)cc1)N1CCN(S(=O)(=O)c2c(Cl)cccc2Cl)CC1
screen / no.	1	2	3	4	5	6	7	8
NPYLR7 agonist	-3.1	-4.7	-5.0	6.8	1.6	-13.0	4.2	-3.5
NPYLR7 agonist max-min	-1.4	-6.4	-6.8	11.6	21.4	-4.8	1.8	-2.8

[9] CN1C(=O)NC(c2ccc(C(C)(C)C)cc2)C2=C1CN(CC(=O)NCCOc1ccccc1)C2=O (stereo not given)
[10] Cc1ccc(OC(=O)CCn2c(=O)oc3ccccc32)c(C)c1
[11] Cc1ccc(Cc2nsc(N3CCCN(C(=O)c4ccc(Br)cc4)CC3)n2)cc1
[12] CSc1cccc(CN(C(=O)Cc2ccncc2)C(C)C)c1
[13] CCNC(=O)CN(CC)C(=O)C(c1cccc(Br)c1)N1CCCC1 (stereo not given)
[14] CC1CCC(N(C)C(=O)NCC(=O)N(C)CC(F)(F)F)CC1 (stereo not given)
[15] CCN(C(=O)C(=O)NCc1ccccc1CN1CCCC(C)C1)c1cccc(F)c1 (stereo not given)
[16] O=C1CON=C(c2ccccn2)N1
screen / no.	9	10	11	12	13	14	15	16
NPYLR7 agonist	-1.6	-1.1	6.3	-4.9	5.1	6.2	8.4	-1.9
NPYLR7 agonist max-min	3.7	3.3	6.2	-4.7	4.7	4.0	3.9	-3.8

[17] CCCn1c(=O)c(C(=O)NCc2ccco2)nn(-c2ccccc2)c1=O
[18] O=C(Cc1cccs1)N1CCC(c2nc(-c3ccc(F)c(F)c3)no2)CC1
[19] Cc1cnc(C(=O)Nc2cc(C)nn2-c2cccc(C(F)(F)F)c2)cn1
[20] COC(=O)c1ccc(NC(=O)Cn2cc(-c3ccccc3C)c(N3CCOCC3)n2)cc1
[21] O=C(CN1CCN(C(=O)CN2CCOCC2)CC1)Nc1cccc(F)c1
[22] O=C(NC1CC1)N1CCN(Cc2ccc(-c3ccccc3F)s2)CC1
[23] O=C(C1CCCCn2nnnc21)N1CCc2[nH]nc(-c3ccccc3)c2C1 (stereo not given)
[24] CCN(CCN1CCCC1)Cc1cccnc1
screen / no.	17	18	19	20	21	22	23	24
NPYLR7 agonist	-4.4	-5.1	-4.7	-8.4	0.0	0.4	-1.4	4.7
NPYLR7 agonist max-min	1.2	2.6	22.4	-12.2	10.9	-0.7	-3.3	0.4

[25] CC1(C)ON=C(c2ccc(F)cc2)N(Cc2ccncc2)C1=O
[26] CC1=NN(c2ccc(Cl)c(Cl)c2)C(=O)/C1=C/c1cc([N+](=O)[O-])ccc1O
[27] CCCCc1ccc(C(=O)N(CCCOC)CC(=O)N(Cc2ccccc2)Cc2cccn2Cc2cccc(OC)c2)cc1
[28] Cc1ccc(C(=O)NNC(=O)c2ccoc2C)cc1F
[29] C=Cc1cccc(CN2CCC(CNC(=O)C3CCNCC3)C2)c1 (stereo not given)
[30] CCn1c(SCC(=O)Nc2cccc(NC(C)=O)c2)nnc1-c1cccn(C)c1=O
[31] Cc1noc(C)c1CNC(=O)CC1CCS(=O)(=O)C1 (stereo not given)
[32] Cc1cccc(NC(=O)Cn2c3c(sc2=O)C2c4ccccc4OCC2CS3)c1 (stereo not given)
screen / no.	25	26	27	28	29	30	31	32
NPYLR7 agonist	7.9	11.9	-4.8	-6.6	3.2	1.9	-0.1	-5.5
NPYLR7 agonist max-min	5.5	19.6	-3.7	-7.0	2.2	-1.5	-1.9	-8.9

[33] Cc1ccccc1-n1ncc2c(C(C)C)nn(CC(=O)N3CCCCC3)c(=O)c21
[34] CCOC(=O)C1=C(CC)NC2=C(C(=O)CC(C)(C)C2)C1c1ccc(Cl)c(Cl)c1 (stereo not given)
[35] COc1ccc(C(C)(C)NC(=O)c2nc[nH]c2C)cc1OC
[36] CC(NC(=O)CCN(Cc1ccco1)c1nc(-c2ccc(F)cc2)nc2ccccc12)c1ccccc1 (stereo not given)
[37] CCc1noc(C)c1C(=O)N(C)CC1COc2ccccc2O1 (stereo not given)
[38] COCCN(Cc1cccc(OS(=O)(=O)c2ccc(F)cc2)c1)C(=O)Nc1ccc(F)c(F)c1
[39] COc1ccc(C(NC(=O)C2CCN(CCN3C(=O)c4ccccc4C3=O)CC2)c2cnccn2)cc1 (stereo not given)
[40] COc1ccc(N2CCN(Cc3ccc4nsnc4c3)C(C)C2)cc1 (stereo not given)
screen / no.	33	34	35	36	37	38	39	40
NPYLR7 agonist	4.4	-5.4	1.4	-5.1	-1.3	-12.1	-15.5	4.2
NPYLR7 agonist max-min	1.3	-1.0	15.2	-2.6	-2.6	-15.4	-18.2	1.5

Seven entries out of the list, arranged by number of heavy atoms, smallest number first:
[31] Cc1noc(C)c1CNC(=O)CC1CCS(=O)(=O)C1 (stereo not given)
[35] COc1ccc(C(C)(C)NC(=O)c2nc[nH]c2C)cc1OC
[37] CCc1noc(C)c1C(=O)N(C)CC1COc2ccccc2O1 (stereo not given)
[40] COc1ccc(N2CCN(Cc3ccc4nsnc4c3)C(C)C2)cc1 (stereo not given)
[32] Cc1cccc(NC(=O)Cn2c3c(sc2=O)C2c4ccccc4OCC2CS3)c1 (stereo not given)
[38] COCCN(Cc1cccc(OS(=O)(=O)c2ccc(F)cc2)c1)C(=O)Nc1ccc(F)c(F)c1
[36] CC(NC(=O)CCN(Cc1ccco1)c1nc(-c2ccc(F)cc2)nc2ccccc12)c1ccccc1 (stereo not given)
screen / no.	31	35	37	40	32	38	36
NPYLR7 agonist	-0.1	1.4	-1.3	4.2	-5.5	-12.1	-5.1
NPYLR7 agonist max-min	-1.9	15.2	-2.6	1.5	-8.9	-15.4	-2.6

Following part
[41] CC(C)(C)C(=O)NS(=O)(=O)c1ccc(F)cc1C(F)(F)F
[42] Cc1ccc(NC(=O)c2ccc(CSc3nc(Cl)cc(N4CCN(C/C=C/c5ccccc5)CC4)n3)cc2)cc1C
[43] CCC1CCCCN1Cn1nc(-c2ccc3c(c2)OCO3)oc1=S (stereo not given)
[44] Cc1nnc(C(C)C)n1C1C[C@H]2CC[C@@H](C1)N2CC[C@H](NC(=O)C1CCC(F)(F)CC1)c1ccccc1 (stereo not given in full)
[45] Cc1ccccc1-c1nc(OCC(C)C)nn1-c1ccc(NC(=O)C(Cl)c2ccccc2)cc1 (stereo not given)
[46] CC(C)CNC(=O)c1csc(CN(CC(C)C)C(=O)Nc2ccc(Cl)c(Cl)c2)n1
[47] CCOC(=O)N1CCC(NC(=O)c2cccnc2Nc2cccc(C)c2C)CC1
[48] Cc1ccc(C(C)C)c(OCC(=O)NNC(=O)c2ccccc2C)c1
screen / no.	41	42	43	44	45	46	47	48
NPYLR7 agonist	5.5	6.5	2.4	-3.0	-5.6	3.4	-9.5	-2.4
NPYLR7 agonist max-min	4.4	8.3	2.0	-10.8	3.4	22.9	-17.9	-6.9

[49] COc1ccc(-c2nc3scc(CCNS(=O)(=O)c4ccc(Cl)c(Cl)c4)n3n2)cc1
[50] COCCCNC(=O)C(NC(=O)c1cccc(OC)c1)C1CCN(C(=O)NC(C)C)CC1 (stereo not given)
[51] CCOC(=O)c1nn(-c2ccccc2)c(=O)cc1OCC(=O)N1CCN(c2ccccc2)CC1
[52] N#Cc1ccccc1CSc1nnc(NC(=O)CSc2ccccc2)s1
[53] Cc1nc2ccc(C(=O)N3CCSCC3)cc2nc1C
[54] CC1(NC(=O)c2cc3ccccc3s2)CCS(=O)(=O)C1 (stereo not given)
[55] CN1CCN(c2c3c(c(C#N)c4nc5ccccc5n24)CCCC3)CC1
[56] N#Cc1ccccc1CN1CCN(c2nc(C(=O)N3CCCC3)co2)C1=O
screen / no.	49	50	51	52	53	54	55	56
NPYLR7 agonist	-10.5	14.7	17.5	0.8	18.1	12.3	9.5	-5.6
NPYLR7 agonist max-min	-8.9	18.1	11.0	5.8	9.5	6.4	7.7	-8.7

[57] O=C(Nc1ccccc1)Nc1cccc([N+](=O)[O-])c1
[58] O=S(=O)(Nc1ccc2c(c1)OC1(CCCC1)O2)c1ccc2c(c1)CCC2
[59] COC(=O)[C@@H]1C[C@@H](N(C)C)CN1S(=O)(=O)c1c(C)cccc1Cl
[60] CCOc1ccc(C2C(C(=O)OCc3ccccc3)=C(C)NC3=C2C(=O)CCC3)cc1 (stereo not given)
[61] CC(C)CCN(CC(=O)N(Cc1cccn1Cc1ccc(F)cc1)C1CCCCC1)C(=O)Cc1ccccc1
[62] CCN1CC(CNC2CCN(c3cccc(NC(=O)c4ccccc4OC)c3)CC2)CC1=O (stereo not given)
[63] COC(=O)c1cc2n(n1)CCCN(C(=O)c1ccc3c(c1)OCCO3)C2
[64] Cc1cccnc1CC(C)NC(=O)c1n[nH]c(=O)c2ccccc12 (stereo not given)
screen / no.	57	58	59	60	61	62	63	64
NPYLR7 agonist	7.2	4.2	24.7	18.1	24.1	20.9	8.1	2.0
NPYLR7 agonist max-min	1.4	3.0	10.8	7.5	25.0	12.3	-5.5	-0.1

Nos. 62 to 64 from above:
[62] CCN1CC(CNC2CCN(c3cccc(NC(=O)c4ccccc4OC)c3)CC2)CC1=O (stereo not given)
[63] COC(=O)c1cc2n(n1)CCCN(C(=O)c1ccc3c(c1)OCCO3)C2
[64] Cc1cccnc1CC(C)NC(=O)c1n[nH]c(=O)c2ccccc12 (stereo not given)
screen / no.	62	63	64
NPYLR7 agonist	20.9	8.1	2.0
NPYLR7 agonist max-min	12.3	-5.5	-0.1

Remaining list, next part.
[65] CC1SC(=NC2CCCCC2)NN=C1c1c[nH]c2ccccc12 (stereo not given)
[66] CN(Cc1ccccc1Cl)C(=O)c1cc(NS(C)(=O)=O)ccc1O
[67] Cc1ccc(C=Nc2c(F)cccc2F)o1
[68] COc1ccccc1Oc1cc(N2CCN(C(=O)c3ccccc3)C(C)C2)ncn1 (stereo not given)
[69] Cc1ccc(CN(CCc2ccccc2)C(=O)CN(Cc2ccco2)S(=O)(=O)c2ccccc2)o1
[70] O=S(=O)(c1cccnc1)N1CCN(c2nc3ccccc3[nH]2)CC1
[71] CCCCOc1ccc(N2C(N)=NC(N)=NC2(C)C)cc1
[72] CCC(NC(=O)Cc1cnn(-c2ccccc2)c1)c1noc(C)n1 (stereo not given)
screen / no.	65	66	67	68	69	70	71	72
NPYLR7 agonist	1.8	9.6	18.7	-6.0	0.6	-0.8	6.1	-6.5
NPYLR7 agonist max-min	9.0	7.4	11.6	-5.7	8.1	-4.8	7.1	-7.1

[73] Cc1cc(C)c(C#N)c(=S)[nH]1
[74] C1=CCC(C2OCC(CN3CCCCC3)O2)CC1 (stereo not given)
[75] Cc1cc(-c2csc(NC3CC3)n2)c(C)n1C
[76] COc1ccc(NC(=O)Nc2ccc(Nc3cc(OC(C)C)nc(C)n3)cc2)cc1
[77] CN(C)S(=O)(=O)c1ccc2c(c1)CCCN2
[78] NC(=O)c1ccsc1NC(=O)COC(=O)c1ccccc1NCCC1=CCCCC1
[79] Cc1nc(CN(C)C(=O)Nc2ccc(S(C)=O)c(F)c2)cs1 (stereo not given)
[80] N#CC1(C(=O)Nc2ccc(-c3ccccc3)cn2)CCCCC1
screen / no.	73	74	75	76	77	78	79	80
NPYLR7 agonist	-0.7	-12.4	9.8	-4.6	0.3	1.0	5.7	1.7
NPYLR7 agonist max-min	-8.3	-19.7	16.0	-4.2	-3.2	3.8	2.7	0.8

[81] CC(C)(Oc1ccc(F)cc1)C(=O)Nc1ccc(N2CCCC2=O)cc1
[82] CC(C)c1ccccc1OC1CC2CCC(C1)N2C(=O)c1ccc(CSc2ccc(C(F)(F)F)cn2)cc1 (stereo not given)
[83] Cc1nc2ccc(NC(=O)N3CCC(Oc4cccnc4)C3)cc2o1 (stereo not given)
[84] CNS(=O)(=O)c1ccc(CCC(=O)OCc2cc(C#N)ccc2F)cc1
[85] Cc1ccc(CN2CCC(CN(C)Cc3cccc(F)c3)CC2)o1
[86] COc1ccc2occ(C3N=C(N)NC(Nc4ccc(F)cc4)=N3)c(=O)c2c1 (stereo not given)
[87] Cc1cc(C)n(CCN(C)C(=O)c2cc(COc3c(F)cccc3F)on2)n1
[88] CC(/C=C1\N=C(c2ccc(C(C)(C)C)cc2)OC1=O)=C\c1ccccc1
[89] COc1cc2c(cc1OC)C(=O)N(C)C(c1ccc(F)cc1)N2 (stereo not given)
[90] O=C1NCCc2c(OCc3cccc(C(F)(F)F)c3)cccc21
[91] Cc1nc(SCC(=O)NC(=O)NCC(C)C)c2c(C)c(C)sc2n1
screen / no.	81	82	83	84	85	86	87	88	89	90	91
NPYLR7 agonist	0.8	-9.4	2.4	12.9	1.9	6.0	14.5	-1.9	4.2	2.4	3.8
NPYLR7 agonist max-min	-2.0	-11.1	0.9	8.7	2.7	5.1	5.6	-7.0	1.8	0.0	1.3
